# KCNQ2 pot: potentiators of rat KCNQ2 potassium channel; Potassium voltage-gated channel subfamily KQT member 2 (Rattus norvegicus), O88943; CHO-K1 KCNQ2, FluxOR thallium flux fluorescence; hits give high values; B-score at 10 µM; 310,000 compounds, 0.54% hits;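 active = fluorescence ratio B-score at least 3 SD of library B-scores, with initial fluorescence B-score within 3 SD, cut at about 5.3 in these data; same plate scores as AID 2156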;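 note: B-score of peak minus minimum over baseline fluorescence ratio after K+ and Tl+ stimulus; positive B-score means potentiation of KCNQ2 with more thallium influx and brighter signal; only the inactives scoring about 0 or higher are listed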
# Target sequence (O88943 whole entry, looked up): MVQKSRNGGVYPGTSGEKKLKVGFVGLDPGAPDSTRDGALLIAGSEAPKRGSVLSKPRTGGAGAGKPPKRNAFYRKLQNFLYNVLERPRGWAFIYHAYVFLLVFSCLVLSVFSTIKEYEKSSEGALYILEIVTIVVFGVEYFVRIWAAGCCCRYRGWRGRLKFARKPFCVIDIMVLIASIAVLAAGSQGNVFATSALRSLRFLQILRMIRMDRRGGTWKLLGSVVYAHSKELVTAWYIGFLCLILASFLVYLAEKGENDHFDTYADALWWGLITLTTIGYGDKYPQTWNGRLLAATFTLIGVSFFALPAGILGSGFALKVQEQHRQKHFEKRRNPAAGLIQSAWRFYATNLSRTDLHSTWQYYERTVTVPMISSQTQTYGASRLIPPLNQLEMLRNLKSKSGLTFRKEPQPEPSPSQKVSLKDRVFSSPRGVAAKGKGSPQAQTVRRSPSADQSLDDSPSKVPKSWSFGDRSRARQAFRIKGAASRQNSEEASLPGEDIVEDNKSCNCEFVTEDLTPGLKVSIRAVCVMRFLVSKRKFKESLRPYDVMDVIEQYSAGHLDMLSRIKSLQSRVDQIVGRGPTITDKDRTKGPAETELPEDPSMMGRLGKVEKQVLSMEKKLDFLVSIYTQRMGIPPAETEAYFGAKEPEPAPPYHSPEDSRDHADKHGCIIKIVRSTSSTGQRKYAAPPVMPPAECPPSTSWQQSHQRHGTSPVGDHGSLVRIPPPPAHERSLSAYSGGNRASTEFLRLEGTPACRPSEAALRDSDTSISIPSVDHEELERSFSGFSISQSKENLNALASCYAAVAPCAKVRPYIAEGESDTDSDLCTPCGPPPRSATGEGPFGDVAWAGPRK
# KCNQ2 pot baseline: second read-out of KCNQ2 pot, no call of its own (marks repeat the call); B-score; compound at 10 µM; measured here: initial fluorescence intensity artifact check;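 brightness before thallium and not channel activity; 0 = typical well and far values either way flag optical interference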
# An asterisk follows results filed as active; & = joins results of further samples.
KCNQ2 pot	KCNQ2 pot baseline	canonical_smiles
0.05	-0.98	COc1ccc(-c2cc(N)n(S(=O)(=O)c3ccc(C)cc3)n2)c(OC)c1
0.32	1.7	COc1cc(/C=C2\CCCc3c2nc2ccccc2c3C(=O)O)cc(OC)c1O
1.4	0.05	Cc1nc2c(nnn2Cc2ccccc2)c(=O)[nH]1
0.28	-0.6	CO/N=C/NC(=O)N1OC[C@@H]2COc3ccc4ccccc4c3[C@@H]21
0.69	1.1	COC(=O)c1cccc(NC(=O)c2cccs2)c1C
0.97	-0.35	CCCCN(C)C(=O)c1nc2ccccn2c1CN1CCC[C@H]1CO
0.02	0.1	Cc1ccc(NC(=O)CNCc2ccccn2)cc1S(=O)(=O)N(C)C
0.44	-0.55	O=C(Oc1cccc(OC(=O)c2ccco2)c1)c1ccco1
0.03	-1.1	O=S(=O)(c1cccs1)N1CCN(CC(O)COc2cccc(Br)c2)CC1 (stereo not given)
0.23	-1.4	COc1cc(C(=O)Nc2nnc(SC)s2)c([N+](=O)[O-])cc1OC
0.03	0.02	COc1ccc2nc(C)cc(SCC(=O)Nc3c(C)cccc3C)c2c1
0.78	-0.36	C/C(NC1CCCCC1)=C(/C#N)C(=O)NCCN1CCOCC1
0.99	0.09	COc1ccc(CC(=O)N/N=C(\C)CC(=O)Nc2ccc3c(c2)OCCO3)cc1
0.93	-0.45	COc1cc(C2C3=C(CCCC3=O)Nc3ccc4ncccc4c32)ccc1O (stereo not given)
0.92	-0.08	Cn1ccnc1SCC(=O)Nc1ccc2c(c1)COC2=O
0.79	-0.58	COC(=O)CSc1nnc(NC(=O)c2ccc3c(c2)OCO3)s1
1	-0.55	CC[C@H](C)[C@H](NC(=O)OCc1ccccc1)C(=O)OCC(=O)Nc1ccc(N2CCOCC2)cc1
0.32	0.89	O=C1CC(N2CCN(C(c3ccccc3)c3ccccc3)CC2)C(=O)N1 (stereo not given)
1.2	0.59	COc1ccc(-n2nc(C)cc2Nc2ccccc2C(=O)O)cc1
0.14	-0.22	O=C(CSc1nncs1)NCCNC(=O)CSc1nncs1
4.6	0.43	CCc1ccc2[nH]c(O)c(N=Nc3nc(-c4ccccc4)cs3)c2c1
0.56	1.6	COc1ccc(C)cc1NC(=O)CN(C)C1CCCCC1
2	-0.63	O=C(N/N=C1\CCCc2c1[nH]c1ccc([N+](=O)[O-])cc21)c1ccncc1
0.98	-0.65	CCCCN(CCCC)CCNC(=O)CSCc1ccc(C)cc1
0.17	-0.32	Cc1ccc(Nc2nc(N)c([N+](=O)[O-])c(N3CCC(C)CC3)n2)cc1C
1.2	0.45	CC(=O)N1CCCc2cc(S(=O)(=O)N3CCCC(C(=O)Nc4cc(C)ccc4C)C3)ccc21 (stereo not given)
0.08	0.02	O=C(CCN1C(=O)/C(=C/c2ccc(F)cc2)SC1=S)NCCc1ccc(O)cc1
1.2	0.96	COc1ccc(C(C(=O)NCc2ccccc2)N(Cc2ccco2)C(=O)c2snc(C(N)=O)c2N)cc1 (stereo not given)
0.47	-0.58	CC(C)N(C(=O)COC(=O)c1ccc(Cl)c(S(N)(=O)=O)c1)C(C)C
1.2	-2.1	O=S(=O)(c1ccc(Cl)c(Cl)c1)c1snnc1-c1ccccc1
0.83	0.49	CC(NC(=O)c1cccc(F)c1)C(c1cccs1)N1CCN(C)CC1 (stereo not given)
0.73	-0.69	CCN(c1ccccc1)S(=O)(=O)c1ccc(Cl)c(C(=O)NCC2CCCO2)c1 (stereo not given)
0.06	0.03	FC(F)(F)c1cnc2c(-c3ccccc3)n[nH]c2c1
0.12	0.04	COc1cccc(OCC(Cn2c(C)nc3ccccc32)OC(C)=O)c1 (stereo not given)
0.67	-0.47	OC1CCN(c2cc(-c3ccccc3)nc3cc(-c4ccc(F)cc4)nn23)CC1
1.7	-1.6	CCCNC(=O)c1c(N)n(-c2cc(OC)cc(OC)c2)c2nc3ccccc3nc12
1.1	-1.2	CCCc1cc(=O)[nH]c(SCC(=O)N(C)C2CCS(=O)(=O)C2)n1 (stereo not given)
1.5	-1.7	COc1ccc(OC)c2[nH]c(=O)c(CCNS(=O)(=O)c3ccc(Cl)cc3)cc12
0.8	-0.33	COc1ccc(CNc2nc3ccccc3n2C)c(O)c1
12*	-0.39*	Cc1c(O)nc(SCC(=O)Nc2ccc3c4c(cccc24)CC3)n(-c2ccccc2)c1=O
2.2	-0.84	Cc1cc(F)ccc1N1CCC(N2CCN(CCC(C)C)C(CCO)C2)CC1 (stereo not given)
0.51	0.26	COC(=O)c1cnn2c3c(c(C)nc12)CCCC3
0.52	0.66	CCCCCCSc1ccc(-c2nc3ccc(C)cn3c2NCc2ccccc2)cc1
0.53	-0.65	COc1ccc(N(CC(=O)NCc2ccc3c(c2)OCO3)S(=O)(=O)c2c(C)nn(C)c2C)cc1
0.83	1.1	O=C(O)c1ccccc1NC(=S)NC(=O)c1sc2ccccc2c1Cl
0.07	-0.08	CCC1CCCCN1C(=O)CCc1nnc(Cc2c[nH]c3ccccc23)o1 (stereo not given)
0.92	-0.73	CCn1nc(CC(=O)Nc2nnc(CC(=O)N3CCOCC3)s2)c2ccccc2c1=O
0.4	-0.68	COc1ccc(C(=O)OCC(=O)NC(=O)CCSc2ccccc2)cc1
1.1	-0.07	Oc1ccccc1-c1nc(NCc2ccco2)c2ccccc2n1
4.1	0.56	CC(=O)C1=C(O)C(=O)N(c2ccc(O)cc2)C1c1ccccc1 (stereo not given)

# Next part
KCNQ2 pot	KCNQ2 pot baseline	canonical_smiles
2.9	-0.25	Fc1cccc2sc(Nc3nc4ccccc4s3)nc12
0.86	1.4	CCN(CC(=O)Nc1ccccc1C(=O)OC)S(=O)(=O)c1ccc(OC)cc1
1.1	-0.3	COc1ccc(-c2cc(-c3ccccc3O)[nH]n2)cc1
0.35	-0.02	COc1cc(OC)cc(C(=O)Nc2ccc(-n3cnnn3)c(C)c2)c1
1.2	0.49	O=C(NC1CC1)C1=C[C@@H](c2ccccc2)C[C@@H](OCCCCO)O1
1.3&0.35	0.89&0.04	Cc1nc2c(o1)CCc1ccccc1C2N1CCN(C)CC1 (stereo not given)
1.7	0.04	CCS(=O)(=O)NCC(c1ccco1)N1CCN(c2ccccc2)CC1 (stereo not given)
0.31	0.5	CC(C)CC(CC(C)C)=NNC(=O)c1ccc2c(c1)OCO2
1.1	0.13	CCN1CCN(C(=O)NS(=O)(=O)c2ccc(C)cc2)CC1
1.1	-0.23	OCCSc1nc(-c2ccccc2)nc2c1CCC2
0.88	0.52	CCCN(CCC)CCNC(=O)c1cn(C)c(=O)c2c1c1ccccc1n2C
0.92	1.1	Cc1ccc(S(=O)(=O)N2CCCCC2)cc1NC(=O)COC(=O)c1ccc(O)cc1
1.4	-3.1	CCOC(=O)c1[nH]c2cc3c(cc2c1NC(=O)CN1CCC2(CC1)OCCO2)OCO3
0.55	0.78	O=C(O)CNc1ccc(S(=O)(=O)C(F)(F)F)cc1[N+](=O)[O-]
2.1	0.12	O=C(NCCN1CCN(C(=O)c2ccc([N+](=O)[O-])cc2)CC1)C(=O)NCc1ccccc1
0.01	0.98	COCCCN1C(=O)c2ccc(C(=O)Nc3cccc(OC)c3)cc2C1=O
1.1	-1.8	CC(C)(C)C(=O)Nc1nnc(SCc2ccc(F)cc2)s1
0.12	-1.6	COc1cccc(-n2ccnc2SCC(=O)Nc2cc(C)on2)c1
1.5	0.48	CC(C)(C)OC(=O)NN=C(c1ccc(O)cc1)c1ccc(O)cc1
1.9	-0.41	CCOC(=O)c1c[nH]c2c(C(F)(F)F)cccc2c1=O
2.3	-0.86	Cc1cccc(-n2c(=O)[nH]c3c(C(N)=O)nc(-c4ccccc4Cl)nc32)c1
2.7	-2.3	Cc1cccc(NC(=O)Cc2ccc(F)cc2)c1
0.03	1.8	O=C(CSc1nnc(CNC(=O)c2c(F)cccc2Cl)o1)NCc1ccccc1
1.1	-0.35	CCOc1ccc(-c2ncncc2-c2ccccc2OC)c(O)c1
0.52	0.7	CCCC1=NN(c2ccc([N+](=O)[O-])cc2)C(=O)/C1=C\N(C)C
1.6	-0.43	CCCn1c(=O)c2c(C(F)(F)F)cc(-c3cccs3)nc2n(CCC)c1=O
12*	0.28*	CC(C)(C)NC(=O)C(=O)NNC(=O)c1ccc(C(C)(C)C)cc1
0.01	-0.04	CC(C)(C)c1nc[nH]c(=O)c1Br
1.7	-0.46	CCc1ccc(N2C(=O)CC(Cn3nc(C)cc3C)C2=O)cc1 (stereo not given)
0.14	0.23	CC(C)CNC(=O)c1cc([N+](=O)[O-])ccc1N1CCOCC1
0.17	-0.01	COc1ccc(S(=O)(=O)N2CCOC23CCN(S(=O)(=O)c2ccc(C)cc2)CC3)cc1
0.17	-0.62	O=C(O)Cc1n[nH]c(=O)c2ccccc12
1.1	0	CCCCNC(=O)Nc1cc(C(=O)OC)ccc1Cl
0.47	0.93	O=C1C2C3c4ccccc4C(Br)(c4ccccc43)C2C(=O)N1c1ccccc1O (stereo not given)
0.79	0.04	O=C1Nc2ccccc2Nc2ccc([N+](=O)[O-])cc21
0.34	-0.43	O=C(CN1C(=O)COc2ccccc21)NCCN1CCOCC1
0.07	-0.26	Cn1c(Cc2ccccc2)nnc1SCc1nc2ccccc2c(=O)[nH]1
0.09	-0.86	Cn1c(O)c(N=Nc2ccccc2)c2ccccc21
1.2	0.63	CCOc1ccc(S(=O)(=O)NCCC(=O)NC2CCN(Cc3ccccc3)CC2)cc1
0.6	1.4	CCOc1ccccc1-n1cnc(C#N)c1N
0.03	0.22	NC(=O)[C@H]1CC2(CC(c3cccc(NC(=O)COc4ccc(Cl)cc4)c3)=NO2)CN1C(=O)C(c1ccccc1)c1ccccc1 (stereo not given in full)
2.7	1.9	Cc1ccc(O)c(-c2cc(C(F)(F)C(F)F)nc(-c3ccccc3)n2)c1
1.1	-2.9	C=CCC1(CC=C)CCCN1C(=O)CC1C(=O)NCCN1Cc1cc(OC)cc(OC)c1 (stereo not given)
0.12	-0.13	CCN(CC)C(=O)Cn1cc(SCC(=O)NC)c2ccccc21
0.42	-1.5	CN1CCN(c2ncnc3scc(-c4ccccc4Cl)c23)CC1
1.1	-0.94	CCCCCNC(=O)CN(c1ccc2c(c1)OCO2)S(C)(=O)=O
1.6	-0.73	Cc1c(C(=O)N2CCOCC2)[nH]c2ccc(OCc3ccccc3)cc12
0.67	-1.9	CC1(C)Cc2c(sc(NC(=O)/C=C/C(=O)O)c2C#N)CO1
0.34	1.4	O=C(COC(=O)c1cccc([N+](=O)[O-])c1)NCC1CCCO1 (stereo not given)
0.12	-0.99	O=C(c1ccccc1)N1CCN(C(=O)c2nn3c(C(F)(F)F)cc(-c4ccccc4)nc3c2Br)CC1

# Sorted by count of non-hydrogen atoms (low to high): some entries from above
KCNQ2 pot	KCNQ2 pot baseline	canonical_smiles
1.6	-0.73	Cc1c(C(=O)N2CCOCC2)[nH]c2ccc(OCc3ccccc3)cc12
1.6	-0.43	CCCn1c(=O)c2c(C(F)(F)F)cc(-c3cccs3)nc2n(CCC)c1=O
1.2	0.63	CCOc1ccc(S(=O)(=O)NCCC(=O)NC2CCN(Cc3ccccc3)CC2)cc1

# Some of the entries so far, with values under each structure:
# The line under a structure holds: KCNQ2 pot, KCNQ2 pot baseline
- NC(=O)[C@H]1CC2(CC(c3cccc(NC(=O)COc4ccc(Cl)cc4)c3)=NO2)CN1C(=O)C(c1ccccc1)c1ccccc1 (stereo not given in full)
 : 0.03, 0.22
- Cc1ccc(O)c(-c2cc(C(F)(F)C(F)F)nc(-c3ccccc3)n2)c1
 : 2.7, 1.9

# The main list resumes; the seven compounds before the break are reprinted first.
KCNQ2 pot	KCNQ2 pot baseline	canonical_smiles
0.12	-0.13	CCN(CC)C(=O)Cn1cc(SCC(=O)NC)c2ccccc21
0.42	-1.5	CN1CCN(c2ncnc3scc(-c4ccccc4Cl)c23)CC1
1.1	-0.94	CCCCCNC(=O)CN(c1ccc2c(c1)OCO2)S(C)(=O)=O
1.6	-0.73	Cc1c(C(=O)N2CCOCC2)[nH]c2ccc(OCc3ccccc3)cc12
0.67	-1.9	CC1(C)Cc2c(sc(NC(=O)/C=C/C(=O)O)c2C#N)CO1
0.34	1.4	O=C(COC(=O)c1cccc([N+](=O)[O-])c1)NCC1CCCO1 (stereo not given)
0.12	-0.99	O=C(c1ccccc1)N1CCN(C(=O)c2nn3c(C(F)(F)F)cc(-c4ccccc4)nc3c2Br)CC1
0.23	0.52	CNC(=O)c1cc(C(=O)c2ccc(F)cc2C(F)(F)F)c[nH]1
1.9	-0.69	NC(=O)c1nsc(C(=O)N(c2ccc(F)cc2)C(C(=O)NC2CCCC2)c2ccncc2)c1N (stereo not given)
1.1	-1	COc1cccc(-n2nnc(S(=O)(=O)c3ccc(C)cc3)c2N)c1
0.27	1.1	CC(C)C(=O)NC(Nc1ccc(S(N)(=O)=O)cc1)C(Cl)(Cl)Cl (stereo not given)
1.8	-0.11	CC1Sc2ccc(S(=O)(=O)N3CCC(C(=O)N(C)Cc4ccccc4)CC3)cc2NC1=O (stereo not given)
7.4*	0.01*	S=C(NCc1ccc(Cl)cc1)NC12CC3CC(CC(C3)C1)C2
0.17	1.3	O=C(NCn1cnccc1=O)c1ccccc1
1.5	0.2	CCc1nnc(NC(=O)Cn2c(=O)oc3ccccc32)s1
0.99	-0.44	Cc1ccc(C)c(NC(=O)CN2C(=O)c3ccccc3C2=O)c1
0.26	-1.8	COc1ccc(-c2nc(CS(=O)CC(=O)NC3CCC(C)CC3)c(C)o2)cc1OC (stereo not given)
1.5	-0.07	Cc1ccc(-c2nnnn2CS(=O)(=O)c2ccccc2)cc1
0.03	-0.22	O=C(Nc1ccc(Cl)cn1)c1cccc(F)c1
0.26	0	CCCCn1c(N)c(S(=O)(=O)c2ccc(C)cc2)c2nc3ccccc3nc21
1.6	2.2	O=C(CCc1nc2ccccc2c(=O)[nH]1)N1CCCc2ccccc21
0.82	-0.68	N#C/C(=C\c1ccc[nH]1)C(=O)NCC1CCCO1 (stereo not given)
1.8	-1.1	CC(C)(C)NC(=O)CSc1nnc(-c2ccncc2)n1Cc1ccccc1
0.98	0.54	O=S(=O)(c1ccccc1)N(Cc1ccc(Cl)cc1)c1ccncc1

# Screens deposited in PubChem BioAssay by Johns Hopkins Ion Channel Center.

# A portion of the library. The share of hits here may be higher or lower than overall.
